# Screens: PubChem BioAssay, National Center for Advancing Translational Sciences (NCATS)
# MARV entry inh: Marburg virus entry inhibition. Marburg virus pseudotyped entry inhibition, cell reporter; control for the full effect not named in the record; about a third of the inactives were read at about 46 µM. Potency, µM (top dose mostly 37.8 µM), without a hit: at the highest dose activity change, negative = inhibition, actives largely listed as inhibitors. 300,000 compounds, 1.8% hits; active = well fitted inhibition curve with a large enough effect; inconclusive = small, poorly fitted or top-dose-only effect, or effect the other way; inactive = flat fitted curve, though single readings scatter; tested in HEK293 cells; about a fifth of its hits are not listed in these tables; note: % is set by controls: 0 for no effect and ±100 for the full control effect; luciferase read-out
# NS1 inh: influenza NS1 inhibition; 270,000 compounds, 0.4% hits; Potency, µM (top dose mostly 46.1 µM), inactives show at the highest dose activity, positive = more growth; S. cerevisiae slowed by influenza A NS1, growth recovery by OD600; note: actives are rising curves; nearly all actives have a fitted effect of over 50% in size
#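 A cell-based growth assay was used: compounds that relieve NS1-induced slow growth of budding yeast raise OD600. Assay medium was yeast nitrogen base with ammonium sulphate and -URA supplement, pH 6.0, with 2% galactose.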
# 2A StopGo: FMDV 2A StopGo reporter, luciferase signal; human cells with a luciferase reporter of 2A StopGo recoding; control for the full effect not named in the record; Potency, µM (titrated, usually from 57.9 µM), without a hit: top-dose signal change, negative = less light; 410,000 compounds, 1.2% hits; AID 1159524; active = well fitted falling curve with a large enough effect; inconclusive = small, poorly fitted or top-dose-only effect; inactive = no such curve, though single readings can be large or run the other way; tested in HEK293T cells; note: % is set by controls: 0 for no effect and ±100 for the full control effect; nearly all actives have a fitted effect of over 45% in size; luciferase light after 4 h
# Lassa entry inh: Lassa virus entry inhibition; Lassa virus pseudotype entry inhibition, cell reporter; control for the full effect not named in the record; Potency, µM (highest dose often 37.9 µM), for the others: at the highest dose activity change, negative = inhibition, actives largely listed as inhibitors; 300,000 compounds, 1.2% hits; active means well fitted inhibition curve with a large enough effect; inconclusive means small, poorly fitted or top-dose-only effect, or effect the other way; inactive means flat fitted curve, though single readings scatter; tested in HEK293 cells; note: % is set by controls: 0 for no effect and ±100 for the full control effect; nearly all actives have a fitted effect of over 50% in size; luciferase read-out
# RE007 growth inh: less growth of the S. pombe RE007 Vpr strain; 360,000 compounds, 0.21% hits; Potency, µM (highest dose often 92.2 µM), inactives show top-dose activity change, negative = less growth; S. pombe RE007 Vpr strain, BacTiter-Glo ATP luminescence, 24 h; control for the full effect not named in the record; active = well fitted falling curve with a large enough effect; inconclusive = small, poorly fitted or top-dose-only effect; inactive = no such curve, though single readings can be large or run the other way;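 note: % is set by controls: 0 for no effect and ±100 for the full control effect; nearly all actives have a fitted effect of over 50% in size; the assay follows cell death caused by Vpr and the record does not say whether a fall means rescue or toxicity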
#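 Fission yeast strain RE007, carrying one chromosomally integrated HIV-1 vpr copy, was seeded at OD 0.01 in PMG+AL medium with 23 nL pinned compound. After 24 h at 30 °C and 99% humidity, viability was read by BacTiter-Glo luminescence.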
# SARS PLP yeast: SARS-CoV PLP inhibition in yeast. S. cerevisiae expressing SARS-CoV PLpro, growth rescue; control for the full effect not named in the record. Potency, µM (top dose mostly 32.9 µM), for inactives: at the highest dose activity, positive = growth rescue. 330,000 compounds, 0.19% hits; note: 0% is about no effect; nearly all actives have a fitted effect of over 55% in size; growth read by luminescence after 48 h
# Cruzain noTriton: blocks cruzain activity in detergent-free assay. 200,000 compounds, 2.3% hits. Potency, µM, without a hit: max response, negative = inhibition, actives largely listed as inhibitors. purified cruzain, Z-FR-AMC fluorescence, no detergent. AID 1476. P25779; active = well fitted curve in the direction sought with a large enough effect; inconclusive = small, poorly fitted or top-dose-only effect, or another doubt; inactive = no such curve, though single readings can be large; an effect the other way counts as inactive or inconclusive;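 note: plate controls were enzyme without inhibitor for no effect and buffer without enzyme for full effect; nearly all actives have a fitted effect of over 40% in size; top concentration of the series not given in the record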
# Target sequence (P25779 123-467 limits assumed): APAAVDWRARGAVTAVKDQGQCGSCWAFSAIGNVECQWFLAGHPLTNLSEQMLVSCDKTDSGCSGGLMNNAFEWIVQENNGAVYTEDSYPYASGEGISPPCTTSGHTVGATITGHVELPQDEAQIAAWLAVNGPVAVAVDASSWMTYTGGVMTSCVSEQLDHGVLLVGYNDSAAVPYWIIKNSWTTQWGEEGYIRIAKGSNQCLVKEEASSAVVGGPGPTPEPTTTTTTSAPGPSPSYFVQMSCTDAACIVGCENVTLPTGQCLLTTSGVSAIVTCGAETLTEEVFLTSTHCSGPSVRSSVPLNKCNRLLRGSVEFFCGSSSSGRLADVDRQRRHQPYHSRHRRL
#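 Detergent-free condition (0.00005% Triton X-100) in acetate buffer pH 5.5 with DTT. 1.5 nM enzyme and compound were pre-mixed 15 min, then 2 uM Z-FR-AMC substrate added; reaction progress from fluorescence change between first and third reads (60 s).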
# Cruzain inh Det: inhibitors of Trypanosoma cruzi cruzain with detergent. 200,000 compounds, 0.43% hits. purified cruzain, Z-FR-AMC fluorescence, 0.01% Triton. Potency, µM, for inactives: max response, negative = inhibition, hits mostly inhibitors. P25779; active = well fitted curve in the direction sought with a large enough effect; inconclusive = small, poorly fitted or top-dose-only effect, or another doubt; inactive = no such curve, though single readings can be large; an effect the other way counts as inactive or inconclusive;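 note: plate controls were neutral wells for no effect and buffer without enzyme for full effect; nearly all actives have a fitted effect of over 40% in size; top concentration of the series not given in the record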
#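 Purified cruzain (1.5 nM final) was preincubated with compounds for 15 min at room temperature in 100 mM sodium acetate pH 5.5, 5 mM DTT, 0.01% Triton X-100. Reaction started with 2 uM Z-FR-AMC; AMC fluorescence change over 60 s gave activity.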
# * marks the source's active call; other numbers are inactive results; ? = inconclusive; . = no result given; [ ] = remark or other dose. Unless noted, calls come from the whole dose curve; as a rule, active means well fitted rising curve with a large enough effect; inconclusive means small, poorly fitted or top-dose-only effect; inactive means no such curve, though single readings can be large or run the other way. Potency is the fitted concentration of half-maximal effect. Outcome played no part in choosing rows (roughly 4.7% active in at least one column).
SMILES	MARV entry inh	NS1 inh	2A StopGo	Lassa entry inh	RE007 growth inh	SARS PLP yeast	Cruzain noTriton	Cruzain inh Det
COC(=O)C1=C(C)Nc2[nH]c(=S)[nH]c(=O)c2C1c1ccc(O)cc1 (stereo unspecified)	.	8%	-5%	.	-1%	0%	.	.
COc1ccc(C2CC(=O)Oc3cc(C)c(Cl)cc32)cc1 (stereo unspecified)	.	.	-14%	.	7%	-26%	3%	-3.4%
CC1(c2nnc(-c3ccc(Cl)cc3)o2)CC(c2ccncc2)=NO1 (stereo unspecified)	.	-33%	-15%	.	16%	1%	.	.
COc1ccc(OC)c([C@@H]2OCCC=C[C@H]2C)c1	7%	13%	-27%	0%	-2%	1%	-3%	1.8%
CC(=O)Nc1cccc(C(=O)NCC2(N3CCCCC3)CCCCC2)c1	9%[46.1 µM]	.	-4%	-3%	-12%	1%	.	.
COc1cccc(/C=C2/Sc3ccc(C(=O)NCCN4CCCCCC4)cc3NC2=O)c1	.	-6%	-4%	.	2%	-10%	.	.
CCCN1CCN(CCNC(=O)Nc2cc(Cl)c(OC)cc2OC)CC1	-29%[46.1 µM]	.	-22%	-2%[46.1 µM]	.	.	1%	0.6%
COc1ccc(Cn2ccc3nc(C)c(C(=O)N4CCN(c5ccc(F)cc5)CC4)cc3c2=O)cc1	.	.	?	-18%[46.1 µM]	.	.	-4%	1.3%
CCC1CN(C(=O)N2CCC(C(=O)NCc3cccs3)CC2)c2cc(C)ccc2O1 (stereo unspecified)	.	.	-23%	-16%[46.1 µM]	.	.	18%	-8.2%
Cc1cc(C)cc(NC(=O)CCCc2nnc3n(CC(C)C)c(=O)c4sccc4n23)c1	.	.	-20%	12%[46.1 µM]	.	.	9%	-0.4%
CCC(C)(C)NC(=O)C(c1cccc(OC)c1OC)N(CC(C)C)C(=O)CCC(=O)Nc1cc(C)on1 (stereo unspecified)	-40%[46.1 µM]	.	-9%	-29%	-16%	0%	.	.
CC1=C(C)/C(=N\OS(=O)(=O)c2ccc(C)cc2)C=CC1=O	1.4µM*	-40%	20µM*	6.3µM*	16µM*	-83%	0%	-8.4%
CN(NC(=O)c1ccccc1)C1=NS(=O)(=O)c2ccccc21	4%[46.1 µM]	-7%	-15%	6%	9%	1%	.	.
NC(=O)N/N=C/CCc1ccccc1	16%[46.1 µM]	4%	7%	-4%	-8%	-1%	.	.
CCOc1ccc(N/N=C(/C#N)C(N)=O)cc1	20%	-167%	48%[activator]	25%	0%	-31%	-21%	-9.1%
COc1ccc(Cc2noc(CN3CCN(Cc4csc(C)n4)CC3)n2)cc1OC	-2%[46.1 µM]	-3%	-13%	10%[46.1 µM]	-1%	0%	.	.
CCS(=O)(=O)Nc1ccc(C2=NN(C(=O)c3ccco3)C(c3ccco3)C2)cc1 (stereo unspecified)	?	.	-21%	?	-9%	-4%	.	.
Cc1nn(-c2ccc(Cl)cc2)c2[nH]c(=O)c(CNCc3ccc4c(c3)OCO4)cc12	?	-19%	?	-3%	-17%	-5%	0%	1.0%
Nc1cc(Cl)ccc1C(=O)OCC(=O)NC(=O)NCc1ccccc1	1%	10%	-24%	?	3%	4%	-23%	-12%
CC1CCN(C2CCN(S(=O)(=O)c3ccc(C(F)(F)F)cc3)CC2)CC1	1%[46.1 µM]	-13%	-11%	-12%	-20%	0%	.	.
O=C(Nc1nc2ccccc2n1CCOc1ccccc1)c1ccco1	?	-26%	-15%	?	-3%	0%	-1%	-13%
O=C(O)/C=C\C(=O)Nc1ccccc1C#Cc1ccccc1	3%	-16%	35%[activator]	10%	-9%	-30%	-6%	4.2%
CC(C)c1ccc(-c2nnc(N)s2)cc1	?	-20%	29%	-32%	26%	-32%	-2%	-9.5%
NC(=O)c1ccccc1OCc1nc2ccccc2s1	?	-2%	3%	?	9%	-1%	.	.
CS(=O)(=O)c1ccc2nc(NC(=O)CN3CCN(Cc4ccccc4)CC3)sc2c1	3%	19%	-14%	10%	-9%	-2%	8%	-3.6%

# A different layout for four compounds above.
compound: CC(=O)Nc1cccc(C(=O)NCC2(N3CCCCC3)CCCCC2)c1
- MARV entry inh = 9%[46.1 µM]
- NS1 inh = .
- 2A StopGo = -4%
- Lassa entry inh = -3%
- RE007 growth inh = -12%
- SARS PLP yeast = 1%
- Cruzain noTriton = .
- Cruzain inh Det = .
compound: COc1cccc(/C=C2/Sc3ccc(C(=O)NCCN4CCCCCC4)cc3NC2=O)c1
- MARV entry inh = .
- NS1 inh = -6%
- 2A StopGo = -4%
- Lassa entry inh = .
- RE007 growth inh = 2%
- SARS PLP yeast = -10%
- Cruzain noTriton = .
- Cruzain inh Det = .
compound: CCCN1CCN(CCNC(=O)Nc2cc(Cl)c(OC)cc2OC)CC1
- MARV entry inh = -29%[46.1 µM]
- NS1 inh = .
- 2A StopGo = -22%
- Lassa entry inh = -2%[46.1 µM]
- RE007 growth inh = .
- SARS PLP yeast = .
- Cruzain noTriton = 1%
- Cruzain inh Det = 0.6%
compound: COc1ccc(Cn2ccc3nc(C)c(C(=O)N4CCN(c5ccc(F)cc5)CC4)cc3c2=O)cc1
- MARV entry inh = .
- NS1 inh = .
- 2A StopGo = ?
- Lassa entry inh = -18%[46.1 µM]
- RE007 growth inh = .
- SARS PLP yeast = .
- Cruzain noTriton = -4%
- Cruzain inh Det = 1.3%

# (continued)
SMILES	MARV entry inh	NS1 inh	2A StopGo	Lassa entry inh	RE007 growth inh	SARS PLP yeast	Cruzain noTriton	Cruzain inh Det
Cc1ccc(S(=O)(=O)NC(=O)N2CCCC(C)(C)C2)cc1	0%	3%	-4%	-3%	2%	-4%	1%	2.1%
CCSc1ncnc2c1sc1nc(-c3ccco3)c3c(c12)CC(C)(C)OC3	3%	6%	.	.	.	-13%	-3%	-2.4%
O=C1NC(Cc2c[nH]c3ccccc23)C(=O)N1CCOc1ccc(F)cc1 (stereo unspecified)	15%	1%	-15%	28%	-11%	1%	-3%	-1.0%
O=C(Cc1ccc(Cl)cc1)NNC(=S)NC(=O)c1cccs1	-16%	-72%	-16%	-7%	21%	0%	.	.
O=C(Nc1ccccc1)c1ccc(=O)n(Cc2cccc(Cl)c2)c1	?	-5%	?	3%	3%	0%	.	.
CCOC(=O)Oc1ccc(/C=C2\N=C(C)OC2=O)cc1	-5%	7%	0%	-27%	7%	1%	.	.
COc1ccc(-n2c(Cc3cccn3C)nnc2SCC(N)=O)cc1	0%	-4%	-19%	-12%	9%	2%	8%	0.9%
COc1ccc(-c2c3c(=O)n(C)c(=O)n(C)c3cn2-c2ccc(O)cc2)cc1	-1%[46.1 µM]	-8%	-22%	?	2%	2%	.	.
C=CCn1c(N)cc(=O)nc1SCC(=O)Nc1ccc2ccccc2c1	3%	24%	-4%	1%	5%	-19%	2%	?
Fc1cccc(NC(=S)NCCCN2CCOCC2)c1	6%[46.1 µM]	6%	-7%	15%	1%	2%	11%	1.7%
COc1ccc(OC)c(N(CC(=O)N2CCc3ccccc3C2)S(C)(=O)=O)c1	?	-3%	.	9%	-7%	5%	-7%	0.8%
CC(C)C(=O)c1cc2c(cc1NC(=O)c1ccccc1F)OCCO2	.	.	-17%	?	.	.	?	-8.5%
CCOC(=O)N1CCN(C(=O)CN(c2ccccc2F)S(=O)(=O)c2ccc(C)cc2)CC1	.	.	-14%	?	.	.	?	0.6%
COc1ccc(/C=C/C(=O)Nc2ccccc2Cl)cc1S(=O)(=O)N1CCOCC1	.	-5%	-25%	.	10%	3%	.	.
c1cc2c(cc1CN1CCN(C3CCCCCC3)CC1)OCO2	.	0%	-17%	.	2%	-2%	.	.
O=C(Nc1ccc2oc(-c3cccnc3)nc2c1)c1ccc(-c2cccc(OC(F)(F)F)c2)o1	.	.	?	15%[46.1 µM]	.	.	24%	-3.7%
O=Cc1ccc(N2N=C(c3ccccc3)CC2c2ccccc2)cc1 (stereo unspecified)	.	15%	-24%	.	20%	-2%	.	.
O=C(Cn1cnc2ccccc2c1=O)NCC1COc2ccccc2O1 (stereo unspecified)	-1%	-14%	-13%	8%	-5%	1%	5%	-0.1%
Cc1ccc(C(c2sc3nc(C)nn3c2O)N2CCN(c3ccccc3F)CC2)cc1 (stereo unspecified)	-3%	0%	7%	?	4%	-2%	?	-2.7%
OCC1(Cc2cccc(C(F)(F)F)c2)CCN(Cc2cc(F)cc(F)c2)CC1	?	6%	-9%	?	3%	1%	.	.
CCc1cc2c(=O)c(-c3ccc4c(c3)OCCO4)coc2cc1OS(C)(=O)=O	5.6µM*	12%	-1%	?	14%	-4%	?	-2.8%
Cc1cccc(C)c1Nc1nnc(SCC(=O)Nc2cc(S(=O)(=O)N3CCCCC3)ccc2Cl)s1	?	?	?	-8%	-17%	-3%	13µM*	-2.7%
C=CCNCCCCOc1ccc(C)cc1[N+](=O)[O-]	10%	4%	2%	-7%	6%	-2%	3%	4.9%
COC(=O)c1c(NC(=O)/C=C/C(=O)O)sc(Cc2ccccc2)c1C	11µM*	-10%	?	-6%	-27%	-9%	13%	-9.6%
CN1/C(=C\C(=O)Nc2ccc(F)cc2)C(C)(C)c2ccccc21	-3%	-24%	-7%	-14%	?	-75%	3%	-10%
COc1ccc(NC(=O)COc2cccc3c2CCNC3=O)cc1	13%	.	5%	3%	23%	5%	.	.
CCc1ccc(OCc2nnc(SCc3ccc(C(=O)O)cc3)o2)cc1	13%[46.1 µM]	3%	-5%	13%	6%	1%	.	.
C[C@@H](NC(=O)[C@@H]1Cc2ccccc2CN1C(=O)OC(C)(C)C)C(=O)NCc1ccco1	.	11%	2%	.	-1%	4%	.	.
CC(C)(C)Sc1ccc2nc3c(n2c1)CCCC3	-30%	-15%	-12%	-9%	4%	?	2%	-1.5%
